From PubChem BioAssay
KCNQ2 inh: KCNQ2 channel blockers in CHO-K1 cells – cell-based, FluxOR thallium flux, B-score, primary screen (AID 2156); 1.1% of 310,000 active; 20 min; active compounds read low; only compounds with negative scores are shown here; some inactives read as strong as hits; B-score at 10 µM; O88943;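 active means fluorescence ratio B-score at most minus 3 library SDs, with starting brightness B-score within 2 library SDs, cut at about -5.5 in these data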
Target sequence (O88943 whole entry, looked up): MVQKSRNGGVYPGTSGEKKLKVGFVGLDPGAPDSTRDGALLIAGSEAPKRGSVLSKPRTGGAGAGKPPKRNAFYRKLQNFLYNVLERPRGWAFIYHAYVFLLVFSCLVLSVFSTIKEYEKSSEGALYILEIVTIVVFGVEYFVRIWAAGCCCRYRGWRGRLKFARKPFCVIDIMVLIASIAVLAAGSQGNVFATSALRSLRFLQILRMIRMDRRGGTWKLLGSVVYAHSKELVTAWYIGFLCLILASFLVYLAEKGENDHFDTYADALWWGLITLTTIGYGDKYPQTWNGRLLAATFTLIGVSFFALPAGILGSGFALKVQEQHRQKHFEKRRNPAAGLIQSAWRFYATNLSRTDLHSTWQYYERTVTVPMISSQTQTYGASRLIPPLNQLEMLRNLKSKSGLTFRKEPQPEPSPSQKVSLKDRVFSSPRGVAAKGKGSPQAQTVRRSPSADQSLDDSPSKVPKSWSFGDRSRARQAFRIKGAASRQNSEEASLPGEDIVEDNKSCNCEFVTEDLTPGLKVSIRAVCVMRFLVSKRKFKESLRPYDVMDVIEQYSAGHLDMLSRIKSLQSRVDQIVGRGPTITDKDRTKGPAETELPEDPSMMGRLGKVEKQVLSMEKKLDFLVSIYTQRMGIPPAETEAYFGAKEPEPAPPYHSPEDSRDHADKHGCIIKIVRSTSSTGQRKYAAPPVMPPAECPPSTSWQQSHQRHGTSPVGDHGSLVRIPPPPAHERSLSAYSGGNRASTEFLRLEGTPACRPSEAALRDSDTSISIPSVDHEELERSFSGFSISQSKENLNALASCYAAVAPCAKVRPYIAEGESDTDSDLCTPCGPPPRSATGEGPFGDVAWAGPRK
KCNQ2 inh baseline: further read-out of KCNQ2 inh, marked with its call; B-score; measured here: initial fluorescence intensity artifact check;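 brightness before thallium and not channel activity; 0 = typical well and far values either way flag optical interference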
Active calls of the source: *; i = inactive. An excerpt (hit frequency here may not be typical).

item	KCNQ2 inh	KCNQ2 inh baseline	SMILES
1	i	-0.56	CCCCC(=O)NC(c1ccccc1OC)c1ccc2cccnc2c1O (stereo unspecified)
2	i	-0.3	CNc1oc(/C=C/c2cccc(OC)c2)nc1C#N
3	i	0.18	Cc1cc(C)cc(OCc2ccc(C(=O)N3N=C(C(F)F)CC3(O)C(F)F)o2)c1 (stereo unspecified)
4	i	1.1	Cc1ccc2nc(SCC(=O)Nc3c(F)cccc3F)[nH]c2c1
5	i	0.66	CCOC(=O)c1c(C)[nH]c(C)c1C(=O)CSc1nc2ccccc2c(=O)n1-c1ccc(Cl)cc1
6	i	0.59	COCCN1Cc2cccc(C(=O)NCc3ccccn3)c2C1=O
7	i	-1.6	COc1ccccc1Nc1nc(N)nc(CSc2nccn2C)n1
8	i	0.25	COc1ccc(N2CCN(CCCNC(=O)C(=O)c3c(C)n(C)c4ccccc34)CC2)cc1
9	i	-1	CC(C(=O)NCc1cccs1)n1cccc1 (stereo unspecified)
10	i	1	CSc1ccccc1C(=O)NCc1cccnc1
11	i	1.9	Cc1cc(Br)c2c(c1)=C(c1sc(N3CCCCCC3)nc1O)C(=O)N=2
12	i	-0.92	CSc1ccccc1NC(=O)CN(C)Cc1ccc(Br)cc1
13	i	-2.4	CCN(CC)C(=O)C1CCN(C(=O)c2oc3ccc(C)cc3c2C)CC1
14	i	-0.87	CC1CCC(NC(=O)CN(C)S(=O)(=O)c2ccc3c(c2)CCC(=O)N3)CC1 (stereo unspecified)
15	-5.9*	0.72*	COc1ccnc2c1c(=O)n(Cc1ccc(Cl)cc1Cl)c(=O)n2C
16	i	0.18	CCOc1ccccc1NC(=O)CSc1ncnc2c1oc1ccccc12
17	i	0.9	O=C(Cc1ccccc1[N+](=O)[O-])Nc1ccccc1C(=O)N1CCCC1
18	i	0.16	CCN1C(=O)/C(=C/C2=Cc3ccccc3OC2C)SC1=S (stereo unspecified)
19	i	-0.54	COCc1cc(=O)n2[nH]c(C(F)(F)F)nc2n1
20	i	0.03	CC(C)OCCCNC(=O)c1c(N)n(/N=C/c2cccs2)c2nc3ccccc3nc12
21	i	0.31	CN(C)N1C(N)=C(C#N)C(c2ccc3c(c2)OCO3)C2=C1CC(C)(C)CC2=O (stereo unspecified)
22	i	0.07	CC[C@@]12C(=O)N(c3cccc(Cl)c3)C(=O)N1[C@H](c1cccc(C)c1)[C@@H]1C(=O)N(Cc3ccccc3)C(=O)[C@@H]12
23	i	0.62	O=C(c1ccc([N+](=O)[O-])cc1)N(Cc1ccc(Br)cc1)N1C(=O)CCCC1=O
24	i	2	CCCCn1nnnc1SCC(=O)c1ccc(C)c(C)c1
25	i	0.21	Cc1ccc2nc(-c3ccccc3)c(-c3ccccc3)nc2c1
26	i	0.45	CC(NC(=O)COc1cccnc1[N+](=O)[O-])c1ccc(Cl)cc1 (stereo unspecified)
27	i	-0.02	Cc1nc2c(-c3ccccc3)c(C)nn2c(C)c1CCC(=O)NC(C)CCc1ccco1 (stereo unspecified)
28	i	-1.1	NC(=O)c1cc(-c2csc(NCCc3ccccc3)n2)ccc1O
29	i	0.01	CCOC(=O)C1CCN(c2cc3c(cc2NC(=O)c2cc(OC)ccc2Br)n(C)c(=O)n3C)CC1
30	i	0.23	COc1ccc(OCCC(=O)Nc2ccccc2)cc1
31	i	0.16	O=C(Nc1ccccc1C(=O)OCC(=O)N1CCc2ccccc2C1)c1ccco1
32	i	0.22	COc1cccc(-c2nnc(-c3ccccc3[N+](=O)[O-])o2)c1
33	i	0.21	O=C(CN1CCSC1=NCc1ccccc1)c1ccc(Cl)cc1
34	i	-0.7	CC(=O)NCCCc1nc2ccccc2n1Cc1cc(C)ccc1C
35	i	0.03	Fc1ccc(NC(=S)Nc2cccc3cnccc23)cc1
36	i	-1.8	CCN1CCN(C(c2ccc(F)cc2)c2nnnn2Cc2ccc3c(c2)OCO3)CC1 (stereo unspecified)
37	i	-1	CCc1cc(C(=O)N=Nc2c(O)[nH]c3c(Br)cc(Br)cc23)c2ccccc2n1
38	i	0.37	Fc1ccc(-c2csc3ncnc(N4CCN(Cc5ccccc5)CC4)c23)cc1
39	i	1.9	N#Cc1ccc(OCC(=O)Nc2cc(S(=O)(=O)N3CCCCC3)ccc2N2CCCCC2)cc1
40	-9.9*	-0.17*	O=[N+]([O-])c1ccc2nc(SCc3ccccc3Cl)sc2c1
41	i	2.4	CCOC(=O)CCCNC(=O)COC(=O)[C@@H]1CCCN1S(=O)(=O)c1ccc(Cl)cc1
42	i	-1.4	O=S(=O)(c1ccc(Oc2ncnc3scc(-c4ccccc4)c23)cc1)N1CCOCC1
43	i	0.27	COc1ccccc1C1CC(c2ccco2)=NN1c1ccccc1 (stereo unspecified)
44	i	0.01	CCC(C)(C)NC(=S)Nc1ccccc1C
45	i	-0.1	N#C/C(=C\c1cc([N+](=O)[O-])c(N2CCCCC2)cc1N1CCCCC1)c1nn(-c2ccccc2)c(N)c1C#N
46	i	2.4	O=C(Nc1ccc(N2CCCC2)cc1)c1ccc(Br)cc1
47	i	0.72	Cc1cccc(C)c1NC(=O)c1c(C)nn(-c2ccccc2)c1Cl
48	i	-0.14	COc1cc(C(=O)Nc2cc(C(F)(F)F)ccc2N2CCOCC2)ccc1OCC(=O)N1CCOCC1
49	i	4.2	COc1ccc(NS(=O)(=O)c2cccc(C(=O)N(C)Cc3ccc(SC)cc3)c2)cc1
50	i	0.51	COc1ccc(CNC(=O)C(=O)N2CCC3(CC2)OCCN3S(=O)(=O)c2ccc(C)cc2)cc1
51	i	0.26	CC(=O)Nc1ccc(S(=O)(=O)N2CCC(C(=O)N[C@@H](C)C(=O)NC3CCCC3)CC2)cc1
52	i	-0.03	Fc1ccc(CSc2nnc(Cc3sc(-c4ccccc4)nc3-c3ccccc3)o2)cc1
53	i	1.7	COc1ccc(/C=C/c2ccncc2)cc1OC
54	i	-1	CC(=O)N(Cc1cccc(Br)c1)c1ccc(N2CCOCC2)c(Cl)c1
55	i	-0.29	C[C@H]1CC[C@]2(O[C@@H](CCO)C[C@H](O)[C@H]2O)O1
56	-7.2*	1.2*	COc1ccc(-c2cc(C(=O)N3CCOCC3)c3cc(C)ccc3n2)cc1
57	i	0.07	CCOC(=O)C1CCN(c2ncnc3c2c(-c2ccccc2)cn3-c2ccc(C)cc2)CC1
58	i	2.2	Cc1cc[n+](-c2[nH]c(=O)sc2/C=N/NC([S-])=Nc2ccccc2)cc1
59	i	-2.2	Cc1cccc2c1ncc1c(=O)n(-c3ccccc3)[nH]c12
60	-7.1*	0.31*	O=C(Nc1ccccc1N1CCCCC1)c1ncoc1-c1ccc(F)cc1

Next section.
item	KCNQ2 inh	KCNQ2 inh baseline	SMILES
61	i	0.77	COc1cccc(CC(=O)Nc2ccc3nc(C)sc3c2)c1
62	i	-0.77	CCN1CCN(Cc2ccc(NC(=O)c3cc(NC(=O)c4ccno4)cc(OC)c3)cc2C(F)(F)F)CC1
63	i	0.26	O=C(NCc1cccs1)c1nc2ncccn2n1
64	i	-0.92	CCCCC1=CC2=CC(=O)C(C)(OC(=O)CC)C(=O)C2=CN1c1cccc(C#N)c1 (stereo unspecified)
65	i	0.55	CCOC(=O)c1[nH]c(C)c(CN(CCc2ccc(OC)c(OC)c2)C(=O)CCCC(=O)O)c1C
66	i	-0.02	Cc1ccnc(NC(c2ccccc2O)c2oc(CO)cc(=O)c2O)c1 (stereo unspecified)
67	-6.1*	-1.2*	CC1=C(C(=O)Nc2ccccc2F)C(c2ccsc2)C2=C(CC(c3ccccc3)CC2=O)N1 (stereo unspecified)
68	-7.3*	0.95*	COc1cccc(CN2CCN(C(=O)c3cc(-c4cccnc4)nc4ccc(C)cc34)CC2)c1
69	i	-0.13	Cc1ccc(C(=O)Cn2c(=N)n(N)c3ccccc32)cc1
70	i	0.02	CC(/C=C/c1ccccc1)=N/NC(=O)c1nc2nc(C)cc(C)n2n1
71	i	-0.01	CC1=CC(C)(C)N2C(=O)C3(C(C#N)=C(N)OC4=C3C(=O)CC(C)(C)C4)c3cccc1c32 (stereo unspecified)
72	i	2.6	Cc1nc2ncnn2c(C)c1Cc1ccc(Cl)cc1F
73	i	-1.3	CCc1c(C(=O)N/N=C/c2cn[nH]c2-c2ccc(F)cc2)csc1C
74	i	-0.15	Cc1ccc(N(CC(=O)Nc2ccc3c(c2)OCCO3)S(=O)(=O)c2c(C)n[nH]c2C)cc1
75	i	-0.05	O=C(NCCN1CCOCC1)c1cc(Sc2ccccc2Cl)nc2ccccc12
76	i	-3.1	O=C(c1ccc(Cl)cc1)C1CCN(C(=O)C2CC2)CC1
77	i	-1.5	COC1=C(Nc2ccccc2OC)C(=O)c2ccccc2C1=O
78	i	0.1	Cc1ccccc1-n1c(SCc2c(C)noc2C)nnc1-c1c[nH]c2ccccc12
79	i	0.23	CC(C)C(OC(=O)CN1C(=O)c2ccccc2C1=O)C(=O)NC1CCCC1 (stereo unspecified)
80	i	0.73	COc1cccc(C(=O)Nc2ccc(S(=O)(=O)Nc3onc(C)c3C)cc2)c1
81	i	1.1	COc1cccc(NC(=O)NNC(=O)COc2ccc3ccccc3c2)c1
82	i	0.97	COCc1ccc(C(=O)N2CCc3c([nH]c4ccccc34)C2c2ccccn2)s1 (stereo unspecified)
83	i	-1.7	CC1(C)NC(=O)N(CC(=O)OCC(=O)c2ccc(F)cc2)C1=O
84	i	2	CCC(C)(C#CCN1CCCCC1)OC(C)=O (stereo unspecified)

Full records as entered above. Values in the order: KCNQ2 inh, KCNQ2 inh baseline
CCC(C)(C#CCN1CCCCC1)OC(C)=O (stereo unspecified) reads i, 2
O=C(c1ccc(Cl)cc1)C1CCN(C(=O)C2CC2)CC1 reads i, -3.1

(next part)
item	KCNQ2 inh	KCNQ2 inh baseline	SMILES
85	i	1.3	CNc1ccccc1NC(=O)C1CCCN1C(=O)OCc1ccccc1 (stereo unspecified)
86	i	0.66	CCN(CC)c1ccc(N=Cc2ccccc2[N+](=O)[O-])cc1
87	i	-1.1	NNC(=O)c1cccnc1Oc1ccccc1
88	i	-0.82	Oc1ccc(Br)cc1-c1nc2cnccn2c1NC1CCCCC1
89	i	-0.09	Cc1c(C(=O)NCc2ccccc2)cnn1-c1ccccc1
90	i	0.64	COc1ccc(C2=NS(=O)(=O)N(C)C(C(=O)N(C)Cc3ccccc3)=C2)cc1OC
91	i	-0.15	CC(=O)c1cc2c(cc1N(C(=O)Cn1nnc3ccccc31)C(C(=O)NCCC(C)C)c1cccnc1)OCO2 (stereo unspecified)
92	i	-0.81	CC1=CC(C)C2C(=O)N(CCCN(C)C)C(=O)C2C1 (stereo unspecified)
93	i	0.1	CCC(=O)OCc1c(C(F)(F)F)nn(C)c1Oc1cccc(C(F)(F)F)c1
94	i	-0.19	C[C@@H]1CC=C[C@H]2[C@H]1C(=O)N(Cc1ccccc1)[C@H]2c1ccc2ccccc2c1/C=C/c1ccccc1
95	i	-1.9	c1coc(-c2nnc(-c3ccco3)nn2)c1
96	i	-0.45	O=C(CCCCN1CCCCC1)c1ccc2c(c1)Cc1ccccc1-2
97	i	-0.34	COCCOC(=O)c1c(C)oc2ccc(OC(=O)c3ccco3)cc12
98	i	0.58	Cc1ccc(C(OCCN(C)C)c2cccc(C(F)(F)F)c2)cc1 (stereo unspecified)
99	i	0.48	CC1CC(C)(C)NC(=S)N1CCC(=O)N1CCN(c2ccccc2)CC1 (stereo unspecified)
100	i	0.01	COc1ccc(CC(=O)Nc2ccc(S(=O)(=O)Nc3nc(C)cc(C)n3)cc2)cc1
101	-8.3*	-1.3*	CC1CN(S(=O)(=O)c2cccc(C(=O)N(CCc3ccccc3)Cc3ccccc3)c2)CC(C)O1 (stereo unspecified)
102	i	0.12	Cc1ccc(C)c(C(=O)Nc2cc(C)nn2-c2nc(C)cc(C)n2)c1
103	i	-0.24	CCN(CC)C(=O)C(=O)c1cccn1-c1cccc(-n2cccc2C(=O)C(=O)N(CC)CC)c1C#N
104	i	2.8	Cc1ccn2cc(CCNC(=O)C3CCCCC3)nc2c1
105	i	1.3	COc1ccc(C(=O)NNC(=O)CSc2nnc(C)n2C)cc1
106	i	0.43	Nc1c(C(=O)Nc2ccccc2F)sc2nc(-c3cccnc3)ccc12
107	i	0.92	CN[C@@H]1CC[C@H](c2ccc(Cl)c(Cl)c2)c2ccccc21
108	i	0.34	CCN(C(=O)COC(=O)c1cc(S(=O)(=O)N2CCOCC2)c(Cl)cc1Cl)C1CCS(=O)(=O)C1 (stereo unspecified)
109	i	1.4	Cc1cc(-c2nnc(CCC(=O)N(C)CCc3ccccc3)o2)no1
110	i	0.47	O=C(CC1(O)C(=O)N(Cc2ccccc2Cl)c2ccccc21)c1ccco1 (stereo unspecified)
111	i	0.18	CCOC(=O)c1c(NC(=O)C2CC(Cl)=CCC2C(=O)O)sc2c1CCCCC2 (stereo unspecified)
112	i	-0.03	O=S1(=O)NC(CC2=CCCCC2)C2CCCCC2O1 (stereo unspecified)

Entries shown so far containing an aryl thioether with sulfur outside any ring, in the order listed:
item	KCNQ2 inh	KCNQ2 inh baseline	SMILES
4	i	1.1	Cc1ccc2nc(SCC(=O)Nc3c(F)cccc3F)[nH]c2c1
5	i	0.66	CCOC(=O)c1c(C)[nH]c(C)c1C(=O)CSc1nc2ccccc2c(=O)n1-c1ccc(Cl)cc1
7	i	-1.6	COc1ccccc1Nc1nc(N)nc(CSc2nccn2C)n1
10	i	1	CSc1ccccc1C(=O)NCc1cccnc1
12	i	-0.92	CSc1ccccc1NC(=O)CN(C)Cc1ccc(Br)cc1
16	i	0.18	CCOc1ccccc1NC(=O)CSc1ncnc2c1oc1ccccc12
24	i	2	CCCCn1nnnc1SCC(=O)c1ccc(C)c(C)c1
40	-9.9*	-0.17*	O=[N+]([O-])c1ccc2nc(SCc3ccccc3Cl)sc2c1
49	i	4.2	COc1ccc(NS(=O)(=O)c2cccc(C(=O)N(C)Cc3ccc(SC)cc3)c2)cc1
52	i	-0.03	Fc1ccc(CSc2nnc(Cc3sc(-c4ccccc4)nc3-c3ccccc3)o2)cc1
75	i	-0.05	O=C(NCCN1CCOCC1)c1cc(Sc2ccccc2Cl)nc2ccccc12
78	i	0.1	Cc1ccccc1-n1c(SCc2c(C)noc2C)nnc1-c1c[nH]c2ccccc12
105	i	1.3	COc1ccc(C(=O)NNC(=O)CSc2nnc(C)n2C)cc1
